# Screening results: PubChem, several laboratories
# Mtb hypoxia inh = PubChem AID 1159583. M. tuberculosis hypoxia-regulated fluorescent reporter, fluorescence. fluorescence inhibition, % (concentration not given with the values). actives 0.1% (n = 300,000);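 active = 35 to 45% if threefold the growth effect, above 45% if 1.5-fold the growth effect; inactive = the rest, general growth blockers included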;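 also: wells of about 50 µL received 100 nL stock; 0% = vehicle wells and 100% = reference inhibitor wells; whole bacteria with a GFP reporter of the hypoxia response; strong numbers were not always called active; many hits fall short of the cut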
# PrP UTR inh = inhibition of PrP 5' UTR reporter expression. inhibition, % (concentration not given with the values). actives 0.35% (n = 340,000). cell-based PrP 5' UTR mRNA reporter, plate reader;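 active = every replicate at 50% or more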;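 also: 0 = median of the neutral control wells; tested in H4 reporter cells; numbers are from one replicate; inactives centre near -14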
# BJeLR viability = MLPCN primary cell-based screen for lethality selective to Ras in HRASV12 cells. actives 0.17% (n = 300,000). inhibition, % (test concentration not listed). BJeLR (HRASV12) viability, CellTiter-Glo ATP luminescence, 48 h; reference of the scale not given here. AID 1554, 2009;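 active = replicate mean above 50%; inconclusive = above 50% but judged a plate artefact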;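 also: 50 nL library stock added to about 25 µL; numbers are from one replicate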
# RN4220 kill = growth inhibition of S. aureus RN4220, primary screen, OD600 | 16 h | actives 0.33% (n = 330,000) | inhibition, % (test concentration not listed) | AID 1259311, 2017;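 active = z-score of -3 or lower and OD600 up to 0.18 on both plates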;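 also: plate controls were untreated cells for no effect and reference antibiotic for full effect; stock transfer was 100 nL into about 80 µL; one replicate is shown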
# Bead autofluor = counter-screen for toxin protease inhibitors: compound fluorescence; compound autofluorescence counterscreen, microsphere flow cytometry; active compounds read high; fluorescence intensity (concentration not given with the values); actives 3.1% (n = 360,000); AID 624483;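 active = at least 3 SD above the mean of all compounds, about 16000 in these data; inconclusive = too few beads counted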;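 also: 100 nL of 1 mM stock went into each well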
# Sa ugtP lethal = growth inhibition of ugtP-null S. aureus, primary screen, RN4220 ugtP deletion, OD600; actives 0.54% (n = 330,000); 16 h; some inactives read as strong as hits; growth inhibition, % (test concentration not listed);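 active = z-score under -3 and OD600 up to 0.15 on both plates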;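 also: plate controls were untreated wells for no effect and antibiotic for full effect; wells of about 80 µL received 100 nL stock; the first replicate is given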
# Mtb hypoxia inh growth = second read-out of Mtb hypoxia inh, no call of its own (marks repeat the call); growth inhibition, %; measured here: M. tuberculosis growth (absorbance);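 0% = vehicle and 100% = reference antibiotic; read after six days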
# * marks the source's active call; other numbers are inactive results; ? = inconclusive; . = not tested or not shown.
SMILES,Mtb hypoxia inh,Mtb hypoxia inh growth,PrP UTR inh,BJeLR viability,RN4220 kill,Bead autofluor,Sa ugtP lethal
Cc1scc(C(=O)NNC(=S)NCC2CCCO2)c1-c1ccccc1 (stereo unspecified),3,7,-10,-7,11,2492,8
CSc1ncccc1C(=O)NC1CCCCCCC1,9,1,.,-5,0.7,2939,0
CCOc1ccc(/C(O)=C2/C(=O)C(=O)N(CCN(CC)CC)C2c2cccs2)cc1 (stereo unspecified),5,3,-34,-3,0.8,4218,3
Oc1ccc(/C=N/Nc2cccc3cccnc23)c(O)c1,.,.,-57,-11,.,11375,.
C=C1CCN(C(C(=O)NCc2ccc(Cl)cc2)C(C)C)S(=O)(=O)c2ccccc21 (stereo unspecified),3,6,.,.,8.5,.,6
Cc1ccccc1C(=O)Oc1ccc(Cl)cc1C(=S)N1CCOCC1,15,1,-5,-1,0.6,4306,2
O=C(O)CCn1nc(-c2ccc(F)cc2)cc(Cc2ccccc2)c1=O,13,2,-30,2,1.9,3740,1
CCOc1ccc(CCN2C(=O)C(=O)N(C(CCCN(C)Cc3ccccc3)CNCc3ccccc3)CC2C(C)C)cc1 (stereo unspecified),15,13,.,.,3.7,.,-2
CCOC(=O)c1cnc(SCc2nc(N)nc(Nc3ccc(OC)cc3)n2)nc1N,12,6,-67,-5,7.8,?,12
CCN1CCN(C(=O)c2cc(-c3ccco3)nc3ccccc23)CC1,3,6,.,.,-0.2,5919,0
Cc1ccc2cc(CN(Cc3ccco3)C(=O)NC3CCCCC3)c(=O)[nH]c2c1C,-7,-2,-11,-11,-0.2,10533,-9
Cc1ccccc1OCC(=O)OCC(=O)Nc1cc(S(C)(=O)=O)ccc1Cl,1,0,-8,3,-0.6,4527,-1

# Entries from the list above containing nitrogen in an aromatic ring, in the order listed:
SMILES,Mtb hypoxia inh,Mtb hypoxia inh growth,PrP UTR inh,BJeLR viability,RN4220 kill,Bead autofluor,Sa ugtP lethal
CSc1ncccc1C(=O)NC1CCCCCCC1,9,1,.,-5,0.7,2939,0
Oc1ccc(/C=N/Nc2cccc3cccnc23)c(O)c1,.,.,-57,-11,.,11375,.
O=C(O)CCn1nc(-c2ccc(F)cc2)cc(Cc2ccccc2)c1=O,13,2,-30,2,1.9,3740,1
CCOC(=O)c1cnc(SCc2nc(N)nc(Nc3ccc(OC)cc3)n2)nc1N,12,6,-67,-5,7.8,?,12
CCN1CCN(C(=O)c2cc(-c3ccco3)nc3ccccc23)CC1,3,6,.,.,-0.2,5919,0
Cc1ccc2cc(CN(Cc3ccco3)C(=O)NC3CCCCC3)c(=O)[nH]c2c1C,-7,-2,-11,-11,-0.2,10533,-9

# Later entries:
SMILES,Mtb hypoxia inh,Mtb hypoxia inh growth,PrP UTR inh,BJeLR viability,RN4220 kill,Bead autofluor,Sa ugtP lethal
CC(NC(=O)COC(=O)C1CCCCC1)c1ccccc1 (stereo unspecified),8,-1,-24,.,1.3,2974,4
C=C(C)c1cccc(C(C)(C)NC(=O)N2CCCC(C(N)=O)C2)c1 (stereo unspecified),.,.,-6,-1,1.9,4875,-2
COc1cccc(C(=O)Nc2cccc(S(=O)(=O)NC3=NCCC3)c2)c1,6,2,-9,.,4.5,8963,1
CC(C)CC(=O)Nc1c2c(nn1-c1cccc(Cl)c1)CS(=O)C2 (stereo unspecified),7,8,-9,-1,2.7,3592,10
Cc1ccc(S(=O)(=O)CCC(=O)OC(C)C(=O)c2c(C)[nH]c3ccccc23)cc1 (stereo unspecified),11,3,-12,0,6.0,9160,8
CC1CCC2(CC1)NC(=O)N(CC(=O)Nc1cccc(S(=O)(=O)N3CCOCC3)c1)C2=O (stereo unspecified),3,-4,-38,5,3.6,6065,2
CC(C)(C)Cc1nnc(NC(=O)c2ccc3c(c2)OCO3)s1,8,3,-44,6,4.7,4534,0
COc1ccc(S(=O)(=O)N2CCOCC2)cc1NC(=O)CSc1n[nH]c(=O)n1C1CC1,8,2,-15,-10,2.9,2513,3
O=C(N/N=C/c1ccc(Cl)c([N+](=O)[O-])c1)c1cc(-c2ccccc2)nc2ccccc12,.,.,-12,3,.,1900,.
COc1ccc(C2CC(c3ccccc3)=NN2c2ccc(Cl)c(C(=O)O)c2)cc1 (stereo unspecified),-6,11,-37,-2,7.6,4766,0
O=C(NCCC1CCCCN1S(=O)(=O)c1ccccc1)C(=O)NC1CC1 (stereo unspecified),.,.,-15,-4,.,5269,.
c1ccc2c(c1)nc1sccn12,9,5,1,-8,3.5,6597,2
COC(=O)[C@]1(C)N[C@H](CN(C)S(=O)(=O)c2ccc(C)cc2)[C@@H]2C(=O)N(Cc3ccccc3)C(=O)[C@@H]21,3,1,-25,.,3.5,3672,9
CCCC(=O)NC(=S)Nc1cc(-c2nc3ncccc3o2)ccc1C,3,4,-12,-10,5.3,5044,39
COc1ccc(-n2c(-c3ccc(Br)cc3)c[n+]3c2CCc2ccccc2-3)cc1,.,.,-15,7,0.0,2741,-13
O=C1CC(c2ccccc2)n2nc(NC(=O)C3CCCO3)nc2N1 (stereo unspecified),3,-2,2,7,1.9,3188,-2
COc1ccc(NC(=O)C(=O)NCCC2CCCCN2S(=O)(=O)c2ccc(F)cc2)cc1 (stereo unspecified),3,1,-27,24,-0.5,7109,8
CC12CC3(C)CC(C)(C1)CC(C(=O)NC1=NCCS1)(C2)C3,-19,-7,14,7,8.8,23810*,-7
CC(C)Nc1nc(Cl)nc(N(C#N)CN2C(=O)c3ccccc3C2=O)n1,10,5,-7,31,2.4,6478,5
CCN(C(=O)COC(=O)c1ccc(-n2c(C)ccc2C)cc1)c1c(N)n(Cc2ccccc2)c(=O)[nH]c1=O,5,1,2,.,0.8,3013,0
O=C(Nc1ccc2c(c1)nc1n2CCSC1)c1ccccc1,4,10,-17,4,1.0,21018*,-2
CCCn1c2ccccc2c2nnc(SCC(=O)Nc3c(C)n(C)n(-c4ccccc4)c3=O)nc21,6,4,-17,-3,4.3,1983,-2
Cc1ccc(C(=O)NCN2CCN(c3ccc(F)cc3)CC2)cc1,0,2,-11,.,1.7,3577,-3
Cc1[nH]c2ccccc2c1C(C[N+](=O)[O-])c1cccs1 (stereo unspecified),6,0,-15,-1,11,2491,-8
CCN1CCN(CCC(=O)Nc2cccc(C)c2)CC1,-3,-5,-17,4,2.3,4349,4
S=C1NCC(c2ccccc2)S1 (stereo unspecified),2,4,-13,.,1.8,3977,-2
Cc1ccc(NC(=O)C2CC3CCC2C3)c(Br)c1 (stereo unspecified),6,7,-42,8,6.3,3262,6
CNc1snc(C)c1C(=O)OC(C)C(=O)NCc1ccccc1 (stereo unspecified),4,8,-22,.,0.4,6238,0
S=C(NCCNC(=S)Nc1ccccc1)Nc1ccccc1,23,18,-10,-5,2.5,3844,2
O=C(Cc1cccc(NC(=O)C2CCN(S(=O)(=O)c3cccc([N+](=O)[O-])c3)CC2)c1)Nc1cccc(C(=O)N2CCCCC2)c1,-1,4,-9,.,3.0,3939,2
CC1(c2ccc3ccccc3c2)NC(=O)N(CC(=O)N2CCCC(C(F)(F)F)C2)C1=O (stereo unspecified),7,-5,-26,.,2.2,6850,7
Cc1ccc2nc(C3CCCN(C(=O)NCc4ccccc4)C3)[nH]c2c1 (stereo unspecified),10,6,-29,.,5.9,11586,-2
N#Cc1cccc(CSc2nnc(CCCO)n2-c2ccccc2)c1,-1,3,-14,-5,1.6,4351,-2
O=C(COc1ccccc1F)Nc1ccc(S(=O)(=O)N2CCCC2)cc1,-7,7,-11,.,0.6,8499,-3
CCOc1cc(N2CCOCC2)c(OCC)cc1NC(=O)COC(=O)c1cc(C)cc(C)c1,14,8,-10,4,7.3,1936,2
c1ccc(-c2ccc3sccc3n2)cc1,21,16,-66,-3,10,3892,9
O=C(NCCc1nnc2ccc(SCC(=O)N3CCCC3)nn12)c1ccc(F)cc1,-11,-10,-19,-3,-1.3,6205,-1
C/C(Cl)=C\Cn1c(O)c(N=NC(N)=S)c2ccccc21,-2,4,-4,2,5.6,4180,9
CCOC(=O)C1CCN(C(=O)COC(=O)COc2ccccc2OC)CC1,2,4,-22,-3,5.4,3117,5
O=[N+]([O-])c1ccccc1S(=O)(=O)NC1CCCC1,11,10,-13,-9,8.8,4547,1
COc1ccc(CCNS(=O)(=O)c2cc3c4c(c2)CC(=O)N4CCC3)cc1,8,6,-31,5,4.0,5626,3
O=c1cc(CSc2nnc(-c3ccccc3)o2)c2ccccc2[nH]1,.,.,-7,-10,4.7,6489,5
O=C(CSc1nc(O)c(C2CCCCC2)c(=O)[nH]1)N1CCOCC1,14,-3,1,-7,11,4289,4
Cc1csc(NC(=O)C2CCN(S(=O)(=O)c3ccccc3)CC2)n1,-2,0,-15,.,4.6,5222,7
C=CCNc1ncnc2c1cnn2-c1ccc(C)cc1C,9,2,-13,0,3.8,6181,6
CCc1cccc(C)c1NS(=O)(=O)c1c(C)nc2sccn2c1=O,4,-6,-20,6,7.6,5941,-4
NNc1ccccc1C(F)(F)F,0,7,-21,.,2.5,3171,3
O=C(ON=C1CCCCC1c1ccc([N+](=O)[O-])cc1[N+](=O)[O-])c1c(F)cccc1F (stereo unspecified),5,7,.,.,4.7,.,0
CSCCC(C(=O)OCC(=O)c1ccc(C)c(C)c1)N1C(=O)c2cc(Cl)c(Cl)cc2C1=O (stereo unspecified),2,-2,-13,2,6.5,3211,16
COc1ccccc1NC(=O)C(C)NS(=O)(=O)c1ccc(Cl)cc1 (stereo unspecified),1,3,-14,0,2.7,3993,-4
Cc1ccc2[nH]c3c(c2c1)CN(C(=O)CN1C[C@H]2C[C@@H](C1)c1cccc(=O)n1C2)CC3,.,.,-27,-5,8.0,7572,2
CCCCn1c(O)c(C(C)=NC(C)c2ccccc2)c(=O)[nH]c1=O (stereo unspecified),6,5,-4,-1,2.6,2831,-3
COc1ccc(NC(=O)Nc2cccc3c2O[C@H](CN(C)S(=O)(=O)c2ccc(OC)cc2)[C@@H](C)CN([C@H](C)CO)C3=O)cc1,-6,5,-32,.,1.5,3517,3
COC(=O)c1sccc1NN1C(=O)c2ccccc2C1=O,15,7,-5,4,3.1,5503,6

# 4 of these compounds, reformatted:
# Second line of a record – Mtb hypoxia inh	Mtb hypoxia inh growth	PrP UTR inh	BJeLR viability	RN4220 kill	Bead autofluor	Sa ugtP lethal
- O=C(Nc1ccc2c(c1)nc1n2CCSC1)c1ccccc1
 : 4	10	-17	4	1.0	21018*	-2
- O=C(N/N=C/c1ccc(Cl)c([N+](=O)[O-])c1)c1cc(-c2ccccc2)nc2ccccc12
 : .	.	-12	3	.	1900	.
- COC(=O)[C@]1(C)N[C@H](CN(C)S(=O)(=O)c2ccc(C)cc2)[C@@H]2C(=O)N(Cc3ccccc3)C(=O)[C@@H]21
 : 3	1	-25	.	3.5	3672	9
- CC(C)Nc1nc(Cl)nc(N(C#N)CN2C(=O)c3ccccc3C2=O)n1
 : 10	5	-7	31	2.4	6478	5

# Hits appear at their usual frequency; 4% or so of the library scored in one or more.
